KCNQ2 inh: KCNQ2 channel blockers in CHO-K1 cells – cell-based, FluxOR thallium flux, B-score, primary screen (AID 2156); O88943; 20 min; hits give low values; only compounds with negative scores are shown here; some inactives read as strong as hits; B-score at 10 µM; actives 1.1% (n = 310,000);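 active means fluorescence ratio B-score at most minus 3 library SDs, with starting brightness B-score within 2 library SDs, cut at about -5.5 in these data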
Target sequence (O88943 whole entry, looked up): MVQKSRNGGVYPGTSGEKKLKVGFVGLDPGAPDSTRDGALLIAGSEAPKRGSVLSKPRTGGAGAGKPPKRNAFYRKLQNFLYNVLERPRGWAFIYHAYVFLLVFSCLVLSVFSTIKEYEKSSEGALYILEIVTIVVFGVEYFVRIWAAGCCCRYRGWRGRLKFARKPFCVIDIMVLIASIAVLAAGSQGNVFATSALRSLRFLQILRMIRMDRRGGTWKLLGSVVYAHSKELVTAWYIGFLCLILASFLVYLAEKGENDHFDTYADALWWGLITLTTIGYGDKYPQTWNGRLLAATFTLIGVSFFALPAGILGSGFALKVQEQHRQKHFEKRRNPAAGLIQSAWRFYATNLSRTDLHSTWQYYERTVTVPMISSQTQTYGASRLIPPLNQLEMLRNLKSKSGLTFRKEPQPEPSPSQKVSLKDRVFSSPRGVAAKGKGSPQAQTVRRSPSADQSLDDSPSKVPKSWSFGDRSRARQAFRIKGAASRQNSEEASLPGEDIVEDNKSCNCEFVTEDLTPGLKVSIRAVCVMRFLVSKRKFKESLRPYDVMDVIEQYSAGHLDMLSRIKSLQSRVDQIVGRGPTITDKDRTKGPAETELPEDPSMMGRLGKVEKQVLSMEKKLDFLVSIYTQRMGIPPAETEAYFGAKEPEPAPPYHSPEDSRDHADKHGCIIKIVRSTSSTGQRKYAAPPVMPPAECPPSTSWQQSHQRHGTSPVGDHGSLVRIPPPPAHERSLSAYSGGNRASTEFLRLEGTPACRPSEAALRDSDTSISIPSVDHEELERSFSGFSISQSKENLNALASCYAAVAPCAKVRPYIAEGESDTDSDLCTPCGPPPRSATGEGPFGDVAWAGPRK
KCNQ2 inh baseline: also measured in KCNQ2 inh; calls as there; B-score; measured here: initial fluorescence intensity artifact check;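 brightness before thallium and not channel activity; 0 = typical well and far values either way flag optical interference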
An asterisk follows results filed as active; i = inactive; & = joins results of further samples. These rows are one share of the data; the hit share may differ from the screen's.

SMILES	KCNQ2 inh	KCNQ2 inh baseline
COc1cc2c(cc1OC)C(C(=O)N1CCCC1)C(c1ccccc1F)N(C)C2=O (configuration not stated)	i	1.09
N/C(Cc1ccc([N+](=O)[O-])cc1)=N\OC(=O)COc1ccccc1Cl	i	0.32
O=C(c1ccccc1Cl)c1c(O)c2ccccc2oc1=O	i	-1.15
CCN1CCSc2ccc(C(=O)NCc3cc(Br)ccc3OC)cc21	i	0.57
COc1cccc(-c2noc(CCCC(=O)N3CCOCC3)n2)c1	i	-0.1
COc1ccc(OC)c(NC(=O)COC(=O)Cc2ccc(-c3ccccc3)cc2)c1	i	0.2
Cc1cccc(N2CCN(S(=O)(=O)c3cccc4nonc34)CC2C)c1 (configuration not stated)	i	2.89
C=CCN(CC=C)C(=O)COC(=O)c1ccc(Sc2ncn[nH]2)c([N+](=O)[O-])c1	i	1.8
COc1ccc(C2C(C(=O)NCc3ccccc3)=C(C)Nc3ncnn32)cc1OC (configuration not stated)	i	-1.17
COc1cccc2cc(C(=O)Oc3ccccc3)c(=O)oc12	i	-0.5
CCOc1ccc(C(=O)Nc2cc(=O)n(C)c(=O)n2C)cc1	i	2.47
CCOc1ccc(/C=N/NC(=O)Cc2csc(Nc3cccc(C(F)(F)F)c3)n2)c(OCC)c1	i	-0.61
COC(=O)c1ccc(=O)n(-c2ccc(OC)cc2)c1	i	0.04
O=c1c(-c2ccco2)[n+]([O-])c2ccccc2n1OCc1ccccc1[N+](=O)[O-]	i	0.01
CN1CCN(NC(=O)c2cccs2)CC1	i	1
N#Cc1ccccc1CN1C(=O)c2ccccc2S1(=O)=O	i	-1.09
CCN1CCN(C(CNS(=O)(=O)c2ccc(OC)cc2)c2cccnc2)CC1 (configuration not stated)	i	-0.06
COc1ccc(CC(=O)N(Cc2ccccc2)C(C)C)cc1	i	-1.89
O=C(COc1ccc(/C=N/NC(=O)c2ccccc2)cc1)Nc1ccc([N+](=O)[O-])cc1	i	-0.18
Nc1nc(-c2cccs2)c(CC(=O)O)s1	i	0.68
O=C(COCc1cc(-c2ccc3c(c2)OCO3)on1)Nc1cccnc1Cl	i	-0.17
O=C(CN1CCOCC1)Nc1ccc2c(c1)OCCO2	i	-0.75
COc1ccc(Cc2nc(C)cc(Cl)n2)cc1[N+](=O)[O-]	i	-0.01
CCOC(=O)C1CCN(C(=O)/C=C/c2cccs2)CC1	i	0.72

A few values from the results shown.
Nc1nc(-c2cccs2)c(CC(=O)O)s1 | KCNQ2 inh baseline = 0.68
O=C(COc1ccc(/C=N/NC(=O)c2ccccc2)cc1)Nc1ccc([N+](=O)[O-])cc1 | KCNQ2 inh baseline = -0.18

Next part:
SMILES	KCNQ2 inh	KCNQ2 inh baseline
CCSc1nnc(NC(=O)c2ccc(Br)s2)s1	i	1.26
CSc1nccc(Oc2ccc(C#N)cc2)n1	i	1.2
CC(C)Cn1c(N)c(C(=O)CSc2nc3ccccc3n2C)c(=O)n(C)c1=O	i	-0.02
S=c1[nH]nc(-c2ccco2)n1/N=C/c1cccc(Cl)c1Cl	i	-1.25
O=C(CSc1nc2ccccc2s1)N1c2ccccc2Sc2ccc(Cl)cc21	i	0.3
COCCNC(=O)c1onc(CSc2cc(C)cc(C)c2)c1C(=O)O	i	-0.12
CC(=O)Oc1ccc(N(C(C)=O)S(=O)(=O)c2ccc(C)cc2C)c2ccccc12	i	-0.45
CCOC(=O)N(NC(=O)C(O)(c1ccccc1)c1ccccc1)c1ccccc1	-6.09*	0.02*
CCOc1cccc2sc(NC(=O)CC)nc12	i	0.15
CCN1CCN(Cc2ccc(NC(=O)c3ccc(C)c(NC(=O)N4CCNC4=O)c3)cc2C(F)(F)F)CC1	i	-2.45&0.96
O=C(c1ccc(CSc2nc3ccncc3[nH]2)cc1)N1CCN(c2cccc(Cl)c2)CC1	i	-0.01
COc1ccc(CC(=O)N2CCC(c3ccccc3)C2)cc1 (configuration not stated)	i	-0.76

A run of entries taken from the entries so far:
SMILES	KCNQ2 inh	KCNQ2 inh baseline
O=C(COCc1cc(-c2ccc3c(c2)OCO3)on1)Nc1cccnc1Cl	i	-0.17
O=C(CN1CCOCC1)Nc1ccc2c(c1)OCCO2	i	-0.75
COc1ccc(Cc2nc(C)cc(Cl)n2)cc1[N+](=O)[O-]	i	-0.01
CCOC(=O)C1CCN(C(=O)/C=C/c2cccs2)CC1	i	0.72
CCSc1nnc(NC(=O)c2ccc(Br)s2)s1	i	1.26
CSc1nccc(Oc2ccc(C#N)cc2)n1	i	1.2
CC(C)Cn1c(N)c(C(=O)CSc2nc3ccccc3n2C)c(=O)n(C)c1=O	i	-0.02
S=c1[nH]nc(-c2ccco2)n1/N=C/c1cccc(Cl)c1Cl	i	-1.25
O=C(CSc1nc2ccccc2s1)N1c2ccccc2Sc2ccc(Cl)cc21	i	0.3
COCCNC(=O)c1onc(CSc2cc(C)cc(C)c2)c1C(=O)O	i	-0.12
CC(=O)Oc1ccc(N(C(C)=O)S(=O)(=O)c2ccc(C)cc2C)c2ccccc12	i	-0.45
CCOC(=O)N(NC(=O)C(O)(c1ccccc1)c1ccccc1)c1ccccc1	-6.09*	0.02*
CCOc1cccc2sc(NC(=O)CC)nc12	i	0.15
CCN1CCN(Cc2ccc(NC(=O)c3ccc(C)c(NC(=O)N4CCNC4=O)c3)cc2C(F)(F)F)CC1	i	-2.45&0.96
O=C(c1ccc(CSc2nc3ccncc3[nH]2)cc1)N1CCN(c2cccc(Cl)c2)CC1	i	-0.01
COc1ccc(CC(=O)N2CCC(c3ccccc3)C2)cc1 (configuration not stated)	i	-0.76

Remaining list, next part.
SMILES	KCNQ2 inh	KCNQ2 inh baseline
CC(C)C[C@H](NC(=O)N1CC(=O)Nc2ccccc21)C(=O)N[C@@H](C(=O)O)c1ccccc1	i	0.66
CC(=O)c1ccc(N2CCN(C(=O)c3ccco3)C(C)C2)c(F)c1 (configuration not stated)	i	3.6
CCOCCOc1nc(C)cc(C)c1S(=O)(=O)c1ccccc1C	i	-2.07
N#CCCn1cc(C(=O)Nc2ccc([N+](=O)[O-])cc2)c(-c2cc3ccccc3o2)n1	i	-1.2
Cc1ccccc1-c1nnc(NC(=O)CSc2nc3ccccc3s2)s1	i	1.98
Cc1ccccc1N(CC(=O)N/N=C/c1ccc(N(C)C)cc1)C(=O)c1ccccc1	i	-0.85
COC(=O)Cc1nnc(NC(=O)c2ccccc2)s1	i	0.83
Cc1cccc(C)c1NC(=O)c1cc(S(=O)(=O)N2CCOCC2)cn1C	i	-1.29
CCOC(=O)c1ccc(N=Cc2nc(-c3ccccc3)oc2OC(C)=O)cc1	i	0.05
CN(C)/C=N/c1nc2nccc(-c3ccccc3)n2n1	i	-0.91
C[C@H](NC(=O)Cc1cccc2ccccc12)C(=O)NCc1ccccc1	i	0.5
COC(=O)Cn1c(=NC(=O)C(C)(C)C)sc2c(C)cc(C)cc21	i	0.39
CCc1ccc2oc(=O)cc(CN3CCC(C)CC3)c2c1	i	0.31
CCOC(=O)c1c(C2COc3ccccc3O2)csc1N (configuration not stated)	i	0.08
COc1ccc(OC)c(N(CC(=O)Nc2ccc3c(c2)OCO3)S(=O)(=O)c2ccccc2)c1	i	-0.01
CC(C)(C)NC(=S)NC(=O)C12CCC3CC(CC(C3)C1)C2	-5.66*	-0.18*
O=c1cc(-c2ccccc2)c2cc(Cl)c(O)c(CN3CCOCC3)c2o1	i	-0.12
O=S1(=O)N=C(N2CCN(Cc3ccc4c(c3)OCO4)CC2)c2ccccc21	i	1.15
O=C(CSc1nnnn1CCCO)Nc1ccc2c(c1)OCO2	i	-0.01
COc1ccccc1-c1cc2nc(C)c(CCC(=O)NCc3ccco3)c(C)n2n1	i	0.51
CCN(CC)S(=O)(=O)c1ccc(N2CC(C(=O)NCc3cccnc3)CC2=O)cc1 (configuration not stated)	i	-0.83
Cn1c(=O)cc(OCC(=O)N2CCC(N3CCCCC3)CC2)c2ccccc21	i	1.78
O=C(CSc1ccc(Cl)cc1Cl)N1CCC(c2nc3ccccc3s2)CC1	i	-1.03
CC(=O)c1ccccc1C(=O)N(C)C1CCCN(Cc2ccccc2F)C1 (configuration not stated)	i	-1.03
CCOC(=O)C1=C(C)NC(=O)NC1c1cc2c(cc1Br)OCO2 (configuration not stated)	i	0.6
CCOC(=O)c1c(C)[nH]c(O)c1C=Nc1ccc(C(F)(F)F)cc1	i	-1.74
CCOC(=O)C1CCCN(C(=O)C2CCN(S(=O)(=O)c3c(C)noc3/C=C/c3ccccc3F)CC2)C1 (configuration not stated)	i	0.43
Cc1ccc(C(=O)CN2C(=O)NC3(CCCCCC3)C2=O)c(C)c1	i	2.45
Cc1ccc(NC(=O)c2ccc(COc3ccc4c(c3)CCC4)cc2)c(C)c1	i	0.3
CN(C)S(=O)(=O)c1ccc(C(=O)OCc2ccc([N+](=O)[O-])cc2)cc1	i	-0.17
Fc1ccc(NC(=S)Nc2ccccc2Cl)cc1	i	0.01
COc1ccc(CCNS(=O)(=O)c2c(C)[nH]c(C)c2C(=O)N2CCCCC2)cc1OC	i	-0.93
COc1cccc(C2=NOC(C(=O)Nc3ccc4c(c3)OCO4)C2)c1 (configuration not stated)	i	2.89
OC(c1ccccc1)C(CN1CCOCC1)c1ccccc1 (configuration not stated)	i	-1.56
CC1CC(C)CN(S(=O)(=O)c2ccc(C(=O)OCC(=O)NCCN3C(=O)CSC3=O)cc2)C1 (configuration not stated)	i	-2.28
Cc1ccnc(NS(=O)(=O)c2ccc(NC(=O)C3CCCCC3C(=O)O)cc2)n1 (configuration not stated)	i	0.6
O=C(CSc1nccn(-c2ccc3c(c2)OCCO3)c1=O)Nc1ccccc1	i	-0.36
Cc1cc(Cl)n2ncc(-c3ccccc3)c2n1	i	-0.55
O=C(NCCN1CCNC1=O)C1CCC(=O)N(CCc2ccccc2)C1 (configuration not stated)	i	0.36
O=C(CSc1nc2c(cnn2-c2ccccc2)c(=O)[nH]1)c1ccc(Cl)cc1	i	1.82
CCCCCC(=O)N1CCN(S(=O)(=O)c2ccc3c(c2)OCCCO3)CC1	i	-0.25
Cc1cc2oc3cc(NCCC4CCCN4C)ccc3c(=O)c2cc1C (configuration not stated)	i	-0.07
O=C1Nc2ccccc2C(=O)N2C[C@@H](O)C[C@H]12	i	-0.14
O=C1CC(Cc2ccccc2)C(=O)N1CCc1ccc2c(c1)OCO2 (configuration not stated)	i	1.43
Cc1nnc(NC(=O)c2oc3ccccc3c2C)s1	i	0.58
O=C(c1ccc(Cl)cc1[N+](=O)[O-])N1CCOCC1	i	-1.28
COc1ccc(N(CC(=O)NCc2ccccc2Cl)S(=O)(=O)c2c(C)noc2C)cc1	i	-0.81
N=c1ccn(Cc2ccccc2Cl)cc1	i	1.41
COc1ccccc1Nc1ccc2nonc2c1[N+](=O)[O-]	i	0.49
CCOC(CCNC(=O)CCC(=O)Nc1ccc2nc(N3CCN(C)CC3)cc(C)c2c1)OCC	i	-2.1
COc1cc(NC(=O)C2CC(c3cccc(Br)c3)=NO2)cc(OC)c1OC (configuration not stated)	i	-0.17
CNC(=S)NC1(C)CCS(=O)(=O)C1 (configuration not stated)	i	-0.51
CCOC(=O)C(=O)Nc1ccc(OC)c(Cl)c1	i	0.02
C=CCC1=C/C(=C\c2c(N)n3nc(CC(=O)N4CCOCC4)sc3nc2=O)C=C(OC)C1=O	i	6.21
Cc1ccccc1OCCn1cc(C(=O)C(=O)N2CCOCC2)c2ccccc21	-8.47*	0.15*
CCOC(=O)c1cnc(-c2ccc(C(F)(F)F)cn2)[nH]c1=O	i	-0.13
COc1cc2c(cc1OC)-c1cc(Nc3ccccc3)nc(=O)n1CC2	i	0.15
Cc1ccc(-c2noc(CCC(=O)Nc3ccc4c(c3)OCO4)n2)cc1	i	1
O=C(NC1CCCCC1)c1cccnc1Sc1ccccc1	i	0.02
COc1ccc(-n2nc(C(=O)NCC(=O)N3CCCCCC3)c3ccccc3c2=O)cc1OC	i	-1.91
Next records
SMILES	KCNQ2 inh	KCNQ2 inh baseline
CCOc1cc(-c2ccc(N)c(OCC)c2)ccc1N	i	2.49
CN(C)c1ccc(/C=C/c2ccc3ccccc3[n+]2C)cc1	i	-3.48
O=C(NNC(=O)c1ccc(SCC2CCCO2)c([N+](=O)[O-])c1)c1ccc(F)cc1 (configuration not stated)	i	1.66
COc1cc(OC)c(OC)cc1C#N	i	-0.65
O=C(CCc1nnc(CCCCc2ccccc2)o1)NC(c1cccnc1)C(F)(F)F (configuration not stated)	i	-0.2
CCOC(=O)c1c(NC(=O)CSc2nc3ccc(C)cc3[nH]2)sc2c1CC(C)(C)NC2(C)C	i	-0.74
COc1ccc(NC(=O)c2oc3ccccc3c2NC(=O)C2CC2)c(OC)c1	i	-1.55
O=C(NC12CC3CC(CC(C3)C1)C2)c1cc2nc(-c3ccco3)cc(C(F)(F)F)n2n1	i	-0.47
Cc1cc(NS(=O)(=O)c2ccc(NC(=O)Nc3ccccc3)cc2)no1	i	-0.1
COc1ccc(CNC(=O)C2CCN(S(=O)(=O)c3ccc4nc5c(c(C(=O)O)c4c3)CC(C)CC5)CC2)cc1 (configuration not stated)	i	-0.05
Cc1ccc(N=Cc2nc(/C=C/c3cccc([N+](=O)[O-])c3)oc2O)cc1	i	2.07
Cc1csc(NC(=O)C2CCN(S(=O)(=O)c3ccc4c(c3)oc(=O)n4C)CC2)n1	i	2.02
O=C(Oc1c(-c2ccccc2)c(=O)n2c3c(cccc13)CC2)c1cccc([N+](=O)[O-])c1	i	-0.89
O=C(NNS(=O)(=O)c1ccc(Cl)cc1)c1cc(-c2ccccc2)nc2ccccc12	i	3.28
CS(=O)(=O)N1CCC(C(=O)Nc2cc(Cl)ccc2Cl)CC1	i	0.25
O=C(c1cc(-c2ccc3c(c2)OCO3)on1)N1CCN(c2ccccc2)CC1	i	-0.62
O=C1[C@@H]2[C@@H]3C[C@@H]([C@H]4ON=C(c5ccc(Cl)cc5)[C@@H]34)[C@@H]2C(=O)N1C1CCCCC1	i	-2.79
Cc1ccc(C2=NN(C(=O)CCCC(=O)O)C(c3ccc4c(c3)OCO4)C2)cc1 (configuration not stated)	i	0.01
CCOC(=O)C1CCN(C(=O)CNC(=O)Cn2c(C)cc3ccccc3c2=O)CC1	i	1.08
CCN(CC)CCN(Cc1cc2cc3c(cc2[nH]c1=O)OCO3)C(=S)NCCCN(C)C	i	-0.02

Bioassay records deposited in PubChem BioAssay by Johns Hopkins Ion Channel Center.
